# Screens (PubChem)
# BasE inh – BasE siderophore enzyme inhibitors, primary screen, biochemical, Acinetobacter baumannii ATCC 17978, fluorescence polarization; AID 485350, 2010; inhibition, % (concentration not given with the values); 0.1% of 84,000 active; purified BasE, fluorescence polarization binding displacement;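 active = both replicates above 25% with normal brightness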;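 note: 0% = negative plate control signal and 100% = positive plate control signal; stock transfer was 100 nL into about 30 µL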
# LANA-nucl inh – inhibitors of KSHV LANA-nucleosome binding, primary screen, biochemical, fluorescence polarization, FITC-LANA1-23, chicken nucleosomes; FITC-LANA1-23 / chicken nucleosome fluorescence polarization; active compounds read low; z-score (no concentration beside the values); 0.3% of 51,000 active; AID 720717, 2013;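 active = both repeat wells score below -2 in polarization z-score versus plate sample wells, excluding overly bright wells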;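 note: 100 nL library stock added to about 30 µL; numbers are from one replicate; some results filed as inactive read as strong as hits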
#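 Test system: purified chicken nucleosomes with FITC-labelled LANA N-terminal peptide (1-23); Input: 240 nM purified chicken nucleosomes (480 nM peptide binding sites), final; Medium: TEN-BT buffer, pH 7.5; Timing: 10–45 min, room temperature; Technique: fluorescence polarization, 480 nm excitation, 535 nm parallel and perpendicular emission; Replication: duplicates.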
# Starred values were filed as active, the others as inactive; . = not tested or not shown; & = joins results of further samples. Some of the compounds tested. The share of hits here may be higher or lower than overall.
compound,BasE inh,LANA-nucl inh
CCOc1ccc(CNc2ccc(NC(=O)c3ccco3)cc2)cc1OCC,0.5,0.732
CCN(CC)C(=O)N1CCN(C)CC1,-1.7&-2.4,0.28&-0.684&-0.236
CC(=O)Nc1ccc(NC(=O)C(C)Sc2n[nH]c(=O)n2Cc2ccccc2)cc1 (stereo not given),-0.6,.
FC(F)(F)c1cnc(Oc2ccccc2)c(Cl)c1,.,2.88
CC(=O)Nc1ccc(NC(=O)C(C)OC(=O)C2CCN(C(=O)Nc3ccccc3)CC2)cc1 (stereo not given),2.0,.
COc1ccc(NC(=O)CN(C)C(C)C(=O)Nc2ccc(NC(C)=O)cc2)cc1 (stereo not given),-0.4,.
COc1nc(-c2ccccc2)ccc1-c1noc(C(C)C)n1,-0.2,-0.591
C/C(=N/NC(N)=S)c1ccc(Br)s1,-0.4,1.62
O=c1[nH]cc(N=Cc2ccc3c(c2)OCO3)c(=O)[nH]1,0.1,-0.097
COc1ccc(-n2c(C)cc(CNS(=O)(=O)c3ccccc3)c2C)cc1,-5.3,0.358
O=c1c(O[C@@H]2O[C@H](CO)[C@@H](O)[C@H](O)[C@H]2O)c(-c2ccc(O)c(O)c2)oc2cc(O)cc(O)c12,.,0.198
O=S(=O)(Cc1ccccc1)N1CCN(Cc2ccco2)CC1,1.0,0.582
COc1ccc(CCN2C(=O)CC(Nc3cc(C(=O)O)ccc3C)C2=O)cc1 (stereo not given),-1.5,.
c1ccc(COc2ccc(Oc3cnccn3)cc2)cc1,1.0,.
Cc1ccc(OCc2nc(SCC(=O)N3CCc4ccccc43)n[nH]2)cc1,1.2,.
O=S(=O)(c1ccc(NC(=S)NC2CCCCC2)cc1)N1CCOCC1,-1.3,-0.871
C=CCN=Cc1c(O)[nH]c2ccccc12,-9.2,0.103
CCCCNC(=O)CN1C(=O)c2ccccc2S1(=O)=O,-0.5,0.072
Cc1ccc(-c2nnn(CC(=O)NC(C)C)n2)cc1,3.7,0.433
C=CCn1c(=NC(=O)CCCC)sc2cccc(OC)c21,-0.1,-0.87
CCc1cc2c(SCC(=O)C(C#N)=C3N(C)c4ccccc4N3C)ncnc2s1,-1.4,.
CCOc1ccccc1C(=O)OCC(=O)NC1CC1,3.1,.
CC(C)n1c(=O)c2oc3ccccc3c2n(CC(=O)NCc2ccccc2)c1=O,1.1,-0.0535
O=C(CNc1ncnc2ccccc12)NCCO,3.6,-0.138
CC1(C)Cn2c(nc(=O)c3c2NC(=O)C3(O)C(F)(F)F)S1 (stereo not given),-1.9,0.981
Fc1ccc(-c2csnn2)cc1,.,0.132
COC(=O)/C(C#N)=C/c1ccc(-c2ccccc2)o1,18.7,-4.09
CC(=O)N1N=C(c2ccc3ccccc3c2)OC12CCCC2,-7.4,.
COc1ccccc1N1CCN(C(=O)c2cc3ccc4cccnc4c3[nH]2)CC1,-8.5,.
Cc1nn(-c2ccccc2)c(C)c1CN(C)C(=O)c1cc(C2CC2)nn1-c1ccccc1,2.6,.
CCNc1ncnc2onc(C)c12,-2.7,.
COC(CN(C)C(=O)C1CCCN(S(=O)(=O)c2ccc3c(c2)oc(=O)n3C)C1)OC (stereo not given),1.6,-1.21
COc1ccccc1NC(=O)Cc1noc(COC(=O)c2cccc(S(=O)(=O)N3CCc4ccccc43)c2)n1,-0.7,.
Cc1cc(N)nc(=S)[nH]1,-5.1,.
O=c1oc2ccccc2cc1-c1nc(C2CC2)cs1,0.8,-0.04
N#Cc1ccc(COC(=O)CC2CCS(=O)(=O)C2)cc1 (stereo not given),0.0,.
COc1cccc(CN(Cc2ccco2)C(c2nnnn2Cc2ccc(F)cc2)C(C)C)c1 (stereo not given),-1.3,0.296
Cc1cc(-n2sc3ccccc3c2=O)c2ccccc2n1,2.5,.
O=[n+]1cc(-c2ccc(F)cc2)n([O-])c2c1CCC2,3.0,.
COc1ccc(NC(=O)COc2ncnc3sccc23)cc1,2.2,.

C/C(=N\OCC(=O)Nc1ccc2c(c1)OCCO2)c1cc2ccccc2o1
  BasE inh: -5.4 | LANA-nucl inh: .

CCOC(=O)C1CCCN(C(=O)C2CCCCC2)C1 (stereo not given)
  BasE inh: -1.4 | LANA-nucl inh: 0.692

CCn1c(CN(C)c2ccccc2)nc2cc(S(=O)(=O)N(C)C)ccc21
  BasE inh: 3.9 | LANA-nucl inh: .

CCn1c(NC(=S)Nc2ccccc2)nc2ccccc21
  BasE inh: 0.2 | LANA-nucl inh: 0.0365

COC(=O)c1ccccc1S(=O)(=O)N1CCN(c2ncccn2)CC1
  BasE inh: 2.9 | LANA-nucl inh: -0.382

COc1ccc(C2=NN(C(=O)COC(=O)c3ccc4c(c3)C(=O)N(CCC(C)C)C4=O)C(c3ccco3)C2)cc1 (stereo not given)
  BasE inh: 1.4 | LANA-nucl inh: .

c1cc2c3c(cccc3c1)NC1(CCCCC1)N2
  BasE inh: 1.1 | LANA-nucl inh: -0.784

COc1ccccc1NC(=O)C(C#N)Cc1cc2cc(C)cc(C)c2[nH]c1=O (stereo not given)
  BasE inh: 2.2 | LANA-nucl inh: -0.485

CC(=Nc1cc(C)[nH]n1)C1CCOC1=O (stereo not given)
  BasE inh: . | LANA-nucl inh: 0.275

COc1cccc(C2=NOC(C(=O)NC3CCCC3)C2)c1 (stereo not given)
  BasE inh: 1.0 | LANA-nucl inh: -1.28

Cc1ccc(C)c(C(C)NC(=O)Cc2c(C)noc2C)c1 (stereo not given)
  BasE inh: 0.5 | LANA-nucl inh: .

CCOC(=O)/C(C#N)=C1\SC=C(c2ccccc2)N1c1c(C)cccc1C
  BasE inh: 0.6 | LANA-nucl inh: .

CCOc1ccc(C(=O)OC(C)CN2CCCCC2)cc1 (stereo not given)
  BasE inh: -0.4 | LANA-nucl inh: 0.622

CCOC(=O)c1csc(NC(=O)c2ccc(S(=O)(=O)N(CC)CC)cc2)n1
  BasE inh: 2.2 | LANA-nucl inh: .

N=c1n(CCN2CCCCC2)c2ccccc2n1CC(=O)c1ccc(Br)s1
  BasE inh: -9.9 | LANA-nucl inh: 0.282

Fc1c(F)c(C(F)(F)F)c(F)c(F)c1Sc1nc2ccccc2o1
  BasE inh: -1.2 | LANA-nucl inh: 0.5

CC1Cc2ccccc2N1C(=O)COC(=O)c1ccc(-n2cnnn2)cc1 (stereo not given)
  BasE inh: -3.2 | LANA-nucl inh: .

CC1=[N+]([O-])C(C)(C)C(c2ccc(Cl)cc2)=[N+]1[O-]
  BasE inh: 0.3 | LANA-nucl inh: .

Brc1csc(CNCCc2ccco2)c1
  BasE inh: -0.6 | LANA-nucl inh: .

c1ccc(-c2cc(N3CCOCC3)n3cnnc3n2)cc1
  BasE inh: -4.1 | LANA-nucl inh: 1.77

# Copied from the listing (24 entries):
Cc1cc(N)nc(=S)[nH]1
  BasE inh: -5.1 | LANA-nucl inh: .

O=c1oc2ccccc2cc1-c1nc(C2CC2)cs1
  BasE inh: 0.8 | LANA-nucl inh: -0.04

N#Cc1ccc(COC(=O)CC2CCS(=O)(=O)C2)cc1 (stereo not given)
  BasE inh: 0.0 | LANA-nucl inh: .

COc1cccc(CN(Cc2ccco2)C(c2nnnn2Cc2ccc(F)cc2)C(C)C)c1 (stereo not given)
  BasE inh: -1.3 | LANA-nucl inh: 0.296

Cc1cc(-n2sc3ccccc3c2=O)c2ccccc2n1
  BasE inh: 2.5 | LANA-nucl inh: .

O=[n+]1cc(-c2ccc(F)cc2)n([O-])c2c1CCC2
  BasE inh: 3.0 | LANA-nucl inh: .

COc1ccc(NC(=O)COc2ncnc3sccc23)cc1
  BasE inh: 2.2 | LANA-nucl inh: .

C/C(=N\OCC(=O)Nc1ccc2c(c1)OCCO2)c1cc2ccccc2o1
  BasE inh: -5.4 | LANA-nucl inh: .

CCOC(=O)C1CCCN(C(=O)C2CCCCC2)C1 (stereo not given)
  BasE inh: -1.4 | LANA-nucl inh: 0.692

CCn1c(CN(C)c2ccccc2)nc2cc(S(=O)(=O)N(C)C)ccc21
  BasE inh: 3.9 | LANA-nucl inh: .

CCn1c(NC(=S)Nc2ccccc2)nc2ccccc21
  BasE inh: 0.2 | LANA-nucl inh: 0.0365

COC(=O)c1ccccc1S(=O)(=O)N1CCN(c2ncccn2)CC1
  BasE inh: 2.9 | LANA-nucl inh: -0.382

COc1ccc(C2=NN(C(=O)COC(=O)c3ccc4c(c3)C(=O)N(CCC(C)C)C4=O)C(c3ccco3)C2)cc1 (stereo not given)
  BasE inh: 1.4 | LANA-nucl inh: .

c1cc2c3c(cccc3c1)NC1(CCCCC1)N2
  BasE inh: 1.1 | LANA-nucl inh: -0.784

COc1ccccc1NC(=O)C(C#N)Cc1cc2cc(C)cc(C)c2[nH]c1=O (stereo not given)
  BasE inh: 2.2 | LANA-nucl inh: -0.485

CC(=Nc1cc(C)[nH]n1)C1CCOC1=O (stereo not given)
  BasE inh: . | LANA-nucl inh: 0.275

COc1cccc(C2=NOC(C(=O)NC3CCCC3)C2)c1 (stereo not given)
  BasE inh: 1.0 | LANA-nucl inh: -1.28

Cc1ccc(C)c(C(C)NC(=O)Cc2c(C)noc2C)c1 (stereo not given)
  BasE inh: 0.5 | LANA-nucl inh: .

CCOC(=O)/C(C#N)=C1\SC=C(c2ccccc2)N1c1c(C)cccc1C
  BasE inh: 0.6 | LANA-nucl inh: .

CCOc1ccc(C(=O)OC(C)CN2CCCCC2)cc1 (stereo not given)
  BasE inh: -0.4 | LANA-nucl inh: 0.622

CCOC(=O)c1csc(NC(=O)c2ccc(S(=O)(=O)N(CC)CC)cc2)n1
  BasE inh: 2.2 | LANA-nucl inh: .

N=c1n(CCN2CCCCC2)c2ccccc2n1CC(=O)c1ccc(Br)s1
  BasE inh: -9.9 | LANA-nucl inh: 0.282

Fc1c(F)c(C(F)(F)F)c(F)c(F)c1Sc1nc2ccccc2o1
  BasE inh: -1.2 | LANA-nucl inh: 0.5

CC1Cc2ccccc2N1C(=O)COC(=O)c1ccc(-n2cnnn2)cc1 (stereo not given)
  BasE inh: -3.2 | LANA-nucl inh: .

# More entries:
COc1cc2ccccc2cc1C(=O)NCC(F)(F)F
  BasE inh: 2.9 | LANA-nucl inh: .

CCOC(=O)Cn1c(=N)n(Cc2ccccc2F)c2ccccc21
  BasE inh: -0.3 | LANA-nucl inh: 0.254

Cc1ccc(S(=O)(=O)Nc2ccccc2C(=O)Nc2nccs2)cc1
  BasE inh: -3.3 | LANA-nucl inh: 1.65

COCC(C)n1c(C)cc(C(=O)COC(=O)/C(=C/c2cccs2)c2cccs2)c1C (stereo not given)
  BasE inh: -0.4 | LANA-nucl inh: .

O=C(COC(=O)Cn1cnc2ccccc2c1=O)NC12CC3CC(CC(C3)C1)C2
  BasE inh: 1.2 | LANA-nucl inh: .

O=C(O)CCc1ccc2c(c1)OCCO2
  BasE inh: 0.1 | LANA-nucl inh: 1.34

COc1ccc(OC)c(NC(=O)CSc2nc3ccccc3nc2N2CCCC2)c1
  BasE inh: 1.8 | LANA-nucl inh: -0.723

O=C(CC1(O)C(=O)N(Cc2cccc(F)c2)c2ccccc21)c1ccco1 (stereo not given)
  BasE inh: -4.8 | LANA-nucl inh: 2.49

COC(=O)CSc1sc(=S)sc1SCC[n+]1ccccc1
  BasE inh: 0.6 | LANA-nucl inh: .

CCc1nnc(NC(=O)Cc2ccsc2)s1
  BasE inh: -0.9 | LANA-nucl inh: .

COc1ccc(C2CCCCCN2C(=O)Cn2ncc(=O)c3ccccc32)cc1 (stereo not given)
  BasE inh: 1.8 | LANA-nucl inh: .

CCN(CC)c1ccc(C(=O)N=c2sc3c4ccccc4ccc3n2C)cc1
  BasE inh: 1.7 | LANA-nucl inh: .

CC(C)(C)c1ccc(C(=O)NNc2cc(N3CCOCC3)nc(N3CCOCC3)n2)cc1
  BasE inh: 0.5 | LANA-nucl inh: -0.679

COC(=O)C1=C(C)NC(C)=C(C(=O)OC)C1C(=O)OCCCn1c(=O)[nH]c2ccccc21
  BasE inh: -0.8 | LANA-nucl inh: .

Cc1cc(C(F)(F)F)c2c(N)c(C#N)sc2n1
  BasE inh: -8.4 | LANA-nucl inh: -4.24

COC(=O)c1ccsc1NC(=O)c1cccc(S(C)(=O)=O)c1
  BasE inh: 2.5 | LANA-nucl inh: -0.478

Cc1ccc(OCC(=O)C(C#N)c2nc3ccccc3[nH]2)cc1 (stereo not given)
  BasE inh: 3.8 | LANA-nucl inh: .

O/N=C/c1ccc(Cl)s1
  BasE inh: -0.3 | LANA-nucl inh: .

CN(C)c1ccc(/C=c2/sc3nnc(-c4ccccc4)n3c2=O)cc1
  BasE inh: -4.8 | LANA-nucl inh: .

NC(=O)CCS(=O)(=O)c1ccccc1
  BasE inh: -1.5 | LANA-nucl inh: .

CC1=NN(C(=O)C2CC2)C(=O)C1Cc1ccc(F)cc1 (stereo not given)
  BasE inh: -1.2 | LANA-nucl inh: .

O=C(O)CNC(=O)Cn1cnc2sc3c(c2c1=O)CCCC3
  BasE inh: 2.5 | LANA-nucl inh: .

Cc1n[nH]c(C)c1CCCCCOc1ccccc1
  BasE inh: 0.6 | LANA-nucl inh: -0.0825

COC(=O)C1CCN(c2cc(C)c3cccc(C(C)C)c3n2)CC1
  BasE inh: 0.9 | LANA-nucl inh: .

CN(C)C(=O)COc1cc2oc(=O)c3c(c2cc1Cl)CCC3
  BasE inh: 0.1 | LANA-nucl inh: .
